PKD1 kinase inh: blocks activity of human protein kinase D1 | PKD1 kinase fluorescence polarization assay | actives 0.056% (n = 200,000) | Q15139 | inhibition, %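 (about 10 µM by stock and volumes)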;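 active = inhibition of 50% or more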;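 also: controls were vehicle for no effect and a reference inhibitor for full effect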
GALR2 ag: activates the human galanin receptor 2; O43603; GALR2-expressing cells, agonist activation read-out; activation, %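 (tested at 5 µM)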; actives 0.48% (n = 140,000); AID 803;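 active = above mean plus 3 SD of all compounds, about 5% in these data, not always enough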;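 also: 0% = vehicle buffer wells and 100% = reference agonist at full effect; tested in CHO reporter cells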
Target sequence (O43603 whole entry, looked up): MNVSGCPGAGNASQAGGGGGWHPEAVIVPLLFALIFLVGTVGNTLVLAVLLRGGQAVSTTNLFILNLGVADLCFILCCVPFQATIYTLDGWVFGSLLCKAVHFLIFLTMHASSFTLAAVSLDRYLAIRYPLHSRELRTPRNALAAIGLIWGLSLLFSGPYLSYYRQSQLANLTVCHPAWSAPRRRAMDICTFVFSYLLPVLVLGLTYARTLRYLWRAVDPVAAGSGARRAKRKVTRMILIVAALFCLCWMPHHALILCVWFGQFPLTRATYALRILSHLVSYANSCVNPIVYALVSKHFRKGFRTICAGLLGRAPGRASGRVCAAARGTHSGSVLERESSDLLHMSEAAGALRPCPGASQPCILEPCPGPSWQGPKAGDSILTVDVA
HSV augment: increases HSV replication in cells | HSV replication augmentation in cells, fold increase | maximum fold increase | actives 0.005% (n = 220,000);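 active = peak rise of 1.5-fold or more in the series; tested in PC3 cells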;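 also: first round at 10 µM; read as green reporter fluorescence; hits show the peak of a series up to 25 µM; 1 = signal of infected wells without compound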
INS promoter inh: TRM-6 insulin promoter activity inhibition | TRM-6 cells (human fetal islet line), insulin promoter-eGFP reporter, imaging; reporter expression induced with tamoxifen | inhibition, % at 2 µM | actives 0.9% (n = 130,000);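 active = inhibition above the mean plus 3 SD, with well images judged a real hit on visual review, cut at about 60% in these data, passing the limit was not always enough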
RGS16-Gao: RGS16-Galphao interaction regulator (human). actives 0.38% (n = 220,000). AID 1441. binding response (% of control), % at 10 µM. bead-based flow cytometry RGS16-Galphao binding, fluorescence; actives lie on both sides. O15492+P09471;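 active = below 25% or above 175%, edge rows of some plates excepted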;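 also: Galphao activated by GDP with aluminum fluoride before binding; 100% = wells without compound and 0% = beads without RGS; some results beyond the cut were filed as inactive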
Target sequence (O15492 whole entry, looked up): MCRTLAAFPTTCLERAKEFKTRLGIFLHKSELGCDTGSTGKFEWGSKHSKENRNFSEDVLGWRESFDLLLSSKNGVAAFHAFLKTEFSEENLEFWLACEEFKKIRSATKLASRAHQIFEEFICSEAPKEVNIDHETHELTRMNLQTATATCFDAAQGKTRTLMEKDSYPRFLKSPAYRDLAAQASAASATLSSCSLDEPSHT
Target sequence (P09471 whole entry, looked up): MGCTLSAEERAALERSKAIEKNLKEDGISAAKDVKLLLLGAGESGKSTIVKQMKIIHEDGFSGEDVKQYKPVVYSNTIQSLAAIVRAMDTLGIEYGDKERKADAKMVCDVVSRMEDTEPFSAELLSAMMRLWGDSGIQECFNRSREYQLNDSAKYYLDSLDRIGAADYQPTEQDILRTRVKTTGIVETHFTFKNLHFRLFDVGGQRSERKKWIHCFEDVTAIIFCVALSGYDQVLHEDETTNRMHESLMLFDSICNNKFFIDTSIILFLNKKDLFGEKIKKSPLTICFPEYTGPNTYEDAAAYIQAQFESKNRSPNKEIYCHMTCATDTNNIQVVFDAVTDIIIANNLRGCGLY
INS promoter inh cell count: also measured in INS promoter inh; calls as there; normalized cell count, %; measured here: cell count, toxicity; reference of the scale not given here;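 cells exposed to compound for 48 h; stained nuclei by imaging scaled within each plate; lower means fewer cells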
HSV augment primary fold: also measured in HSV augment; calls as there; fold increase; compound at 10 µM; measured here: primary screen fold increase 10 uM; tested in PC3 cells;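 GFP signal in the first replicate; 1 = infected wells without compound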
* marks the source's active call; other numbers are inactive results; i = inactive; / = not tested or not shown. Rows are unselected. Share with any hit: about 1.3%.

SMILES	PKD1 kinase inh	GALR2 ag	HSV augment	HSV augment primary fold	INS promoter inh	INS promoter inh cell count	RGS16-Gao
c1ccc(Nc2nc(N3CCCC3)nc(N3CCCC3)n2)cc1	0	-0.1	i	0.73	-493	63	97
CCC(=O)n1nc(-c2ccccc2)nc1N	-13	0.2	i	1	-26	130	96
CCCCC/C(=N\NC(=O)CCC(=O)NCc1ccccc1)c1ccccc1	-4	-1.2	i	0.88	-371	75	104
COc1ccc(CCNc2oc(COc3ccc(Br)cc3)nc2C#N)cc1OC	-3	-3.1	i	0.91	/	/	103
CCN(C(=O)c1ccc2c(Cl)c3c(nc2c1)CCC3)c1cccc(C)c1	-13	-0.6	i	0.8	-50	107	104
Cc1ccc(N2CC(C(=O)Nc3ccc4c(c3)OCCO4)CC2=O)cc1 (stereo not given)	-3	-3.4	i	0.9	12	50	99
COc1ccc(CC(=O)N2CC3(C)CC2CC(C)(C)C3)cc1OC (stereo not given)	5	-0.1	i	1	17	116	86
Cc1nc2c(C(=O)N3CCOCC3)cnn2c(C)c1Cc1cccc(Cl)c1	-16	-0.7	/	/	39	74	104
CCN1C(=O)/C(=C\c2ccc(F)cc2)N=C1SCC(=O)NCc1ccco1	0	-2.0	i	0.87	/	/	88
O=C(O)CCN1C(=O)c2ccc(Oc3ccc4c(c3)C(=O)N(CCC(=O)O)C4=O)cc2C1=O	4	-1.7	i	0.8	-8	120	102
CCCn1c(=O)c(C(=O)Nc2ccccc2C(=O)OC)c(O)c2ccccc21	-7	-0.2	i	0.84	-29	78	100
Cc1cccc(NC(=O)COc2ccccc2C)n1	-1	-1.2	i	0.97	/	/	101
Cc1cc(C)c(C#N)c(SCC(=O)Nc2nnc(-c3ccccc3)s2)n1	-6	-0.8	i	0.97	67	97	105
CC(=O)Nc1nccc(-c2cc(-c3ccccc3)no2)n1	/	/	i	1.2	/	/	100
C=CCc1cc(Cl)ccc1OCCNCCOC	-2	/	i	1	/	/	103
O=C(C1CCC(=O)N1Cc1ccccc1Cl)N1CCN(c2ccc(F)cc2)CC1 (stereo not given)	-6	0.4	i	1	/	/	111
O=C(c1cnccn1)N(Cc1ccco1)C1(C(=O)NC2CCCC2)CCCCC1	-8	-3.5	i	1.1	-23	87	105
CN(C)S(=O)(=O)c1cccc(COC(=O)c2ccc(Cl)cc2O)c1	/	/	i	0.98	/	/	101
O=C(Nc1ccc(Cl)cc1)N1CCc2[nH]c3ccccc3c2C1	0	-1.7	i	1	36	137	99
CCOC(=O)CSc1nc2sc(C)c(C)c2c(=O)n1N	-1	-1.1	i	0.92	19	84	104

Record cards, as listed above. Order of screens: PKD1 kinase inh | GALR2 ag | HSV augment | HSV augment primary fold | INS promoter inh | INS promoter inh cell count | RGS16-Gao
Results for `c1ccc(Nc2nc(N3CCCC3)nc(N3CCCC3)n2)cc1` = 0 | -0.1 | i | 0.73 | -493 | 63 | 97
Results for `CCCCC/C(=N\NC(=O)CCC(=O)NCc1ccccc1)c1ccccc1` = -4 | -1.2 | i | 0.88 | -371 | 75 | 104

New compounds follow
SMILES	PKD1 kinase inh	GALR2 ag	HSV augment	HSV augment primary fold	INS promoter inh	INS promoter inh cell count	RGS16-Gao
Cc1ccc(Cn2ccc(=O)c(Cc3c(Cl)cccc3Cl)c2C)cc1	-2	-0.6	i	0.99	-13	98	96
c1ccc(CN(Cc2cccs2)C(c2cccs2)c2nnnn2C2CCCC2)cc1 (stereo not given)	-10	-1.2	i	1.2	-479	40	111
CC(C)(C)OC(=O)N1CC(O)CC1C(=O)OCC(=O)c1ccccc1 (stereo not given)	-2	-1.6	i	0.8	29	80	100
Cc1ccccc1NC(=O)c1ccc(-n2cncn2)nc1	-7	-4.0	i	1.2	-83	115	116
O=C1/C(=C\c2ccsc2)N2CCC1CC2	/	/	i	0.96	/	/	96
c1ccc(Cn2c(Sc3nnnn3-c3ccccc3)nnc2-c2ccccc2)cc1	-8	-0.8	i	1.2	-35	61	41
O=C(CCc1nnc(-c2ccccc2)o1)c1ccc(Cl)cc1	/	/	i	0.98	/	/	102
COc1ccc(CNC(=S)Nc2ccc3nc(N4CCN(C)CC4)cc(C)c3c2)cc1	-5	/	i	0.82	/	/	101
O=C(NNC(=O)c1ccc[nH]1)Nc1cccc(C(F)(F)F)c1	/	/	i	1	/	/	101
O=C(NCc1nc2ccccc2[nH]1)C1=C[C@@H](c2ccccc2)C[C@@H](OCCCCO)O1	3	/	i	0.87	/	/	97
CC(=O)Nc1ccccc1OCC(=O)NCCc1ccc(Cl)cc1Cl	-8	-0.9	i	1	/	/	121
O=S(=O)(NCC(c1cccnc1)N1CCN(c2ccc(F)cc2)CC1)c1ccc(F)cc1 (stereo not given)	-18	-2.3	i	0.64	/	/	108
O=C(Cn1nc(Cl)nc1Cl)Nc1ccccc1	3	-1.3	i	0.88	-15	136	103
COc1ccc(NC(=O)Cn2c(NCC(C)O)nc3ccccc32)cc1Cl (stereo not given)	-9	/	i	0.96	/	/	111
Cc1ccc(C(=O)Nc2ccc3c(c2)OCO3)cc1NC(=O)c1ccco1	2	/	i	0.94	50	142	104
Cc1ccc2nc(SCn3nnc4ccccc4c3=O)[nH]c2c1	-8	-0.4	i	0.89	/	/	103
CCCCNC(C(=O)Nc1cccc(S(=O)(=O)N2CCOCC2)c1)c1ccccc1 (stereo not given)	-8	/	i	1	-100	72	100
O=C(Cn1nnc(-c2cccs2)n1)NCc1ccco1	1	/	i	0.96	-19	77	105
C=CCC(C#Cc1ccc(C)cc1)N(CC)CC (stereo not given)	6	0.1	i	1	-31	124	103
COc1cc(C2NC(=S)NC(c3ccccc3)=C2C(C)=O)cc(Br)c1OCC(N)=O (stereo not given)	0	/	i	0.97	/	/	101
COc1ccc(/C=C/C(=O)N2CCC(c3ccccc3)C2)cc1 (stereo not given)	5	-1.1	i	1.1	6	121	90
CCOC(=O)CNC1CC(=O)N(c2cccc(Cl)c2)C1=O (stereo not given)	-11	-0.1	i	0.95	-5	93	102
CSc1cccc(NC(=O)COc2ccccc2C)c1	0	/	i	0.77	/	/	99
Cc1ccc(S(=O)(=O)NCC(=O)N2CCN(c3ccccn3)CC2)cc1	-5	0.6	i	1	3	138	106
Cc1csc(NC(=O)C(NS(=O)(=O)c2ccc(Br)s2)c2ccccc2)n1 (stereo not given)	-4	-0.3	i	0.96	0	102	104
Cc1cccc(NC(=O)Nc2ccc(Oc3c(F)c(F)c(F)c(F)c3F)cc2)c1	1	-1.4	i	0.89	44	112	99
O=C(NCc1ccco1)/C(=C\c1cccs1)NC(=O)c1ccsc1	-4	-1.7	i	0.91	-93	82	84
Cc1cccc(C(=O)O/N=C2\CCCc3ccccc32)c1	-6	-1.6	i	0.84	-10	137	98
COc1cc2nc(C3CCC3)n(NC(=O)C3CCCC(OC)C3)c(=O)c2cc1OC (stereo not given)	/	/	i	0.84	/	/	105
Cc1c(C(=O)N2CCN(c3ncccn3)CC2)sc2nc3n(c(=O)c12)CCCC3	-4	-2.8	i	0.9	41	56	101
CC(C)N1CCN(c2ccncc2S(=O)(=O)N2CCOCC2)CC1	-1	-2.3	i	0.94	-3	75	112
COCCn1c(C)cc(C(=O)CSc2nc(C)nc3sc4c(c23)CCC4)c1C	-5	-1.7	i	0.77	-341	64	/
COc1ccc(NC(=O)CCSc2cc(C)c3ccccc3n2)cc1	-8	0.7	i	0.97	/	/	103
Cc1cc(Cl)ccc1OCCCC(=O)N1CCN(C)CC1	-7	-0.1	i	1	-37	263	82
COC(=O)CCSCC(=O)Nc1ccc(S(=O)(=O)N2CCOCC2)cc1OC	/	/	i	1.1	/	/	94
Cc1nc(S/C(=C/c2ccc(-c3ccc(C(=O)O)cc3)o2)C(=O)O)n[nH]1	/	/	i	1.2	/	/	100
COc1ccc(C)cc1S(=O)(=O)N1CCCC(C(=O)NCC2CCCO2)C1 (stereo not given)	-8	-1.5	i	1.1	/	/	101
CC(C)OC(=O)C1CC(C)(O)C(=O)C(C(=O)OC(C)C)C1c1ccc([N+](=O)[O-])cc1 (stereo not given)	-3	/	i	0.94	-118	99	104
Cc1ccccc1-n1nc(C)c2cc(C(=O)N3CCN(S(=O)(=O)c4ccc(Cl)cc4)CC3)sc21	-8	0.9	i	0.92	26	101	101
NC(=O)c1cc(NC(=O)c2ccc(NS(=O)(=O)c3cccs3)cc2)cc(C(N)=O)c1	/	/	i	1.1	/	/	98

Shown in markdown: part of the list above.
| SMILES | PKD1 kinase inh | GALR2 ag | HSV augment | HSV augment primary fold | INS promoter inh | INS promoter inh cell count | RGS16-Gao |
| --- | --- | --- | --- | --- | --- | --- | --- |
| O=C1/C(=C\c2ccsc2)N2CCC1CC2 | / | / | i | 0.96 | / | / | 96 |
| c1ccc(Cn2c(Sc3nnnn3-c3ccccc3)nnc2-c2ccccc2)cc1 | -8 | -0.8 | i | 1.2 | -35 | 61 | 41 |
| O=C(CCc1nnc(-c2ccccc2)o1)c1ccc(Cl)cc1 | / | / | i | 0.98 | / | / | 102 |
| COc1ccc(CNC(=S)Nc2ccc3nc(N4CCN(C)CC4)cc(C)c3c2)cc1 | -5 | / | i | 0.82 | / | / | 101 |
| O=C(NNC(=O)c1ccc[nH]1)Nc1cccc(C(F)(F)F)c1 | / | / | i | 1 | / | / | 101 |
| O=C(NCc1nc2ccccc2[nH]1)C1=C[C@@H](c2ccccc2)C[C@@H](OCCCCO)O1 | 3 | / | i | 0.87 | / | / | 97 |
| CC(=O)Nc1ccccc1OCC(=O)NCCc1ccc(Cl)cc1Cl | -8 | -0.9 | i | 1 | / | / | 121 |
| O=S(=O)(NCC(c1cccnc1)N1CCN(c2ccc(F)cc2)CC1)c1ccc(F)cc1 (stereo not given) | -18 | -2.3 | i | 0.64 | / | / | 108 |
| O=C(Cn1nc(Cl)nc1Cl)Nc1ccccc1 | 3 | -1.3 | i | 0.88 | -15 | 136 | 103 |
| COc1ccc(NC(=O)Cn2c(NCC(C)O)nc3ccccc32)cc1Cl (stereo not given) | -9 | / | i | 0.96 | / | / | 111 |
| Cc1ccc(C(=O)Nc2ccc3c(c2)OCO3)cc1NC(=O)c1ccco1 | 2 | / | i | 0.94 | 50 | 142 | 104 |
| Cc1ccc2nc(SCn3nnc4ccccc4c3=O)[nH]c2c1 | -8 | -0.4 | i | 0.89 | / | / | 103 |
| CCCCNC(C(=O)Nc1cccc(S(=O)(=O)N2CCOCC2)c1)c1ccccc1 (stereo not given) | -8 | / | i | 1 | -100 | 72 | 100 |
| O=C(Cn1nnc(-c2cccs2)n1)NCc1ccco1 | 1 | / | i | 0.96 | -19 | 77 | 105 |

Other records follow.
SMILES	PKD1 kinase inh	GALR2 ag	HSV augment	HSV augment primary fold	INS promoter inh	INS promoter inh cell count	RGS16-Gao
COc1ccc(-c2c(C)n([O-])c3c([n+]2=O)CCCCC3)cc1OC	-3	/	i	0.97	/	/	98
Oc1ccc(-c2[nH]nc(-c3ccccc3)c2-c2nc3ccccc3[nH]2)cc1	0	-2.5	i	0.88	-26	112	100
O=C(Nc1ccc(F)cc1F)c1cc2ncc(CCCl)cn2n1	-6	0.2	i	0.9	7	116	74
O=C(NCCn1cc(SCC(=O)N2CCOCC2)c2ccccc21)c1ccccc1	4	-0.3	i	0.91	/	/	104
CN(CCOc1ccccc1)S(=O)(=O)c1ccc2oc3ccccc3c2c1	6	-1.6	/	/	16	62	100
CCn1cc(-c2csc(N)n2)c(C)n1	-1	/	/	/	-23	120	100
CCOCCCNC(=O)C(NC(=O)Cc1c[nH]c2ccccc12)c1ccc(OC)cc1 (stereo not given)	-5	/	i	0.91	/	/	95
COc1ccc(C(C#N)Nc2ccc(C)cc2)cc1 (stereo not given)	-6	-1.5	i	0.84	0	77	101
CN1CCN(P(=O)(c2ccccc2)c2nc3ccccc3s2)CC1 (stereo not given)	-8	-2.3	i	1	/	/	101
CC(C)COCC(O)CCC(=O)NNC(=S)Nc1ccccc1 (stereo not given)	-9	-0.8	i	0.98	-113	89	104
COc1cccc(OC)c1C(=O)NC(C)c1ccccc1 (stereo not given)	-2	-0.2	i	1.1	-39	99	102
